# KCNQ2 enhance: potentiators of rat KCNQ2 potassium channel | CHO-K1 KCNQ2, FluxOR thallium flux fluorescence; active compounds read high | B-score at 10 µM | Potassium voltage-gated channel subfamily KQT member 2 (Rattus norvegicus), O88943 | 0.54% of 310,000 active;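 active = fluorescence ratio B-score at least 3 SD of library B-scores, with initial fluorescence B-score within 3 SD, cut at about 5.3 in these data; same plate scores as AID 2156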;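 also: B-score of peak minus minimum over baseline fluorescence ratio after K+ and Tl+ stimulus; positive B-score means potentiation of KCNQ2 with more thallium influx and brighter signal; only the inactives scoring about 0 or higher are listed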
# Target sequence (O88943 whole entry, looked up): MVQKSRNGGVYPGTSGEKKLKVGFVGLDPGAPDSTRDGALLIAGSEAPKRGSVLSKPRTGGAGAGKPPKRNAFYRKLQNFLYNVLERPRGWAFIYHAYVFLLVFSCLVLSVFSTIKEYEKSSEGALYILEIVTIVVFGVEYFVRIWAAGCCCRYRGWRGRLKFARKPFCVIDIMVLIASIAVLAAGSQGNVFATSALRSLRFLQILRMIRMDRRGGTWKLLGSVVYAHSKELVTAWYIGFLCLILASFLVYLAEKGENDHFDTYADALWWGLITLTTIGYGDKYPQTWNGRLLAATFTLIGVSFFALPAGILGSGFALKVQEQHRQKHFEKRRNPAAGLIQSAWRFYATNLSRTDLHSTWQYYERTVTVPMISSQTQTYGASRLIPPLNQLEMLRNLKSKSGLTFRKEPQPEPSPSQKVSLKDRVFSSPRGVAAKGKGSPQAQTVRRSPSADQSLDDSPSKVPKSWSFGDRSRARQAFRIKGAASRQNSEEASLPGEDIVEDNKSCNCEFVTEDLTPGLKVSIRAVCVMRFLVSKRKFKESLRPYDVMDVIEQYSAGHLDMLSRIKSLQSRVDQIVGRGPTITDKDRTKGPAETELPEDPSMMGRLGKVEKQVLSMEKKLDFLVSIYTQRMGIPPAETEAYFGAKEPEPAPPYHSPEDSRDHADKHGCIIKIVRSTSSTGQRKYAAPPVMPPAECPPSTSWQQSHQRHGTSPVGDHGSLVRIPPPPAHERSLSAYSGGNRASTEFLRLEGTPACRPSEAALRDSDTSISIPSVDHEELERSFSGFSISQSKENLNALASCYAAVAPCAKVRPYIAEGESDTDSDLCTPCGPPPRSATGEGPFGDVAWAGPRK
# KCNQ2 enhance baseline: also measured in KCNQ2 enhance; calls as there; B-score; compound at 10 µM; measured here: initial fluorescence intensity artifact check;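 brightness before thallium and not channel activity; 0 = typical well and far values either way flag optical interference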
# Starred values were filed as active, the others as inactive; & = joins results of further samples. A portion of the library, so the mix of outcomes need not match the whole.
compound	KCNQ2 enhance	KCNQ2 enhance baseline
COc1ccc(CCN2CC(C(=O)NCCc3ccc(C)cc3)CC2=O)cc1OC (stereo unspecified)	0.71	-1.52
Cc1nn(-c2ccccc2)c(-c2ccccc2)c1C(=O)O	0.11	0.49
Cc1cc(C)cc(OCC(=O)Nc2nonc2NC(=O)COc2cc(C)cc(C)c2)c1	0.37	0.76
COC(=O)c1ccc(CNCC(=O)Nc2ccc(C(=O)OC)cc2)cc1	0.64	-0.2
COc1ccc(C(=O)COc2ccc3c(C)cc(=O)oc3c2)cc1	0.38	-2.91
CC1CCCN(C(=S)Nc2ccc(Nc3ccccc3)cc2)C1 (stereo unspecified)	1.27	0.29
CCC(=O)N1CCc2cc(S(=O)(=O)N3CCN(c4ccccc4)CC3)ccc21	0.18	-1.39
Cc1ccccc1C1CC(c2ccc(Br)cc2)Nc2nc(N)nn21 (stereo unspecified)	2.2	2.9
O=C(CSCC(=O)OCC(=O)c1ccc(Br)cc1)Nc1cccc2ccccc12	2.32	0.18
Cc1cc(C(=O)NNC(=S)Nc2ccccc2)nn1C	0.4	2.01
S=C(NCc1ccc(Cl)cc1)Nc1ccc(Cl)cc1Cl	2.11	0.07
O=C(CCN1C(=O)/C(=C/c2ccccc2Cl)SC1=S)NCCc1ccc(O)cc1	0.88	-1.21
O=C(O)CC/C(=C\c1cc2c(cc1Br)OCO2)c1nc2ccccc2s1	1.43	-1.2
COC(=O)c1cc(C(=O)NCCN2C(=O)S/C(=C\c3cccs3)C2=O)cc([N+](=O)[O-])c1	2.08	-1.55
CCOc1ccc(-c2nc(C)sc2CC(=O)O)cc1	0.02	-0.02
Cc1ccc(/C=C/C(=O)OCC(=O)NCCN2C(=O)CSC2=O)cc1	1.89	1.4
CCNc1ccc(C(=O)OCC(=O)N2CCCC2)cc1[N+](=O)[O-]	0.1	0.01
Cc1ccc(C(C)C)cc1S(=O)(=O)NC1CC(C)(C)NC(C)(C)C1	1.7	-2
CCOC(=O)N1CN(C(=O)OCC)CN(C(=O)OCC)C1	0.02	-0.24
COc1ccc(C(=O)N/N=C(\C)CC(=O)N2CCN(C=O)CC2)cc1	0.85	-1.14
CCc1nc2ccccc2c(C(=O)OCc2nnc(-c3ccccc3)o2)c1C	0.89	-0.87
Cc1nc2sccn2c(=O)c1S(=O)(=O)N1CCN(c2cccc(Cl)c2)CC1	0.7	0.27
COc1ccc(OC)c(N(CC(=O)NCCSC2CCCCC2)S(=O)(=O)c2ccccc2)c1	0.02	-0.52
O=C(CSCC(=O)N1CCOCC1)Nc1nc(-c2ccccc2)cs1	0.18	2.2
COc1ccc(OC)c(C2=NOC(C(=O)Nc3cc(C)on3)C2)c1 (stereo unspecified)	0.75	-0.47
Cc1ccccc1CCNC(=O)C1CCC(=O)N(C2CCCCCC2)C1 (stereo unspecified)	0.16	-0.16
CCSCCOC(=O)C1=C(C)NC(=O)NC1c1cccc(OC)c1OC (stereo unspecified)	0.95	-0.3
CCOc1ccc(OCC)c(NC(=O)C2CCCN(S(=O)(=O)c3c(C)n[nH]c3C)C2)c1 (stereo unspecified)	0.73	-0.85
COC(C[C@@H]1O[C@@H]1[C@@H](O)[C@H](C)OCc1ccccc1)OC	0.4	0.17
O=C(NCCc1c[nH]c2ccccc12)C(=O)Nc1ccccc1	0.34	-0.37
COc1ccc(NC(=O)CN2C(=O)COc3ccc(C)cc32)cc1	0.87	-0.11
COC(=O)[C@H](CCSC)NC(=O)NCCc1ccccc1F	0.27	2.51
COc1ccc(C2NC(=O)NC(C)=C2[N+](=O)[O-])cc1OC (stereo unspecified)	0.64	1.85
CCOC(=O)NC(=O)COC(=O)CNC(=O)c1ccc(OCC)c(OCC)c1	2.01	0.02
O=C1CC(C(=O)Nc2ccc(F)c(Cl)c2)N=C(N2CCCCC2)N1 (stereo unspecified)	0.26	-1.37
FC(F)(F)c1ccc(-c2noc(CN3CCCN(C4CCCCC4)CC3)n2)cc1	0.51	1.9
COc1ccccc1NC(=O)CSc1nn2c(=O)c(C)nnc2s1	0.1	0
COc1cc(OC)c2c(=O)c(OC)c(-c3ccc(OC)c(OC)c3)oc2c1	1.14	0.13
O=C(NC1CCCC1)C(c1cccs1)N(C(=O)c1ccco1)c1ccc2c(c1)OCCO2 (stereo unspecified)	0.14	1.74
COc1ccc(C2=NOC(CNC(N)=S)C2)cc1 (stereo unspecified)	1.47	0.01
COc1ccc(C2CC(=O)c3cnc(NC(=O)c4ccccc4)nc3C2)cc1OC (stereo unspecified)	1.62	-0.67
Cc1c(NC(=O)C2CCN(S(=O)(=O)c3ccccc3)CC2)c(=O)n(-c2ccccc2)n1C	0.29	-0.16
COC(=O)C1=CN(c2ccc(OC)cc2)C=C(C(=O)OC)C1c1cccc(F)c1	0.09	0.08
CC1CN(Cc2nc3c(c(=O)[nH]c(=O)n3C)n2CCN2CCOCC2)CC(C)O1 (stereo unspecified)	1.35	1.43
COc1ccc(Cc2nnc(NS(=O)(=O)c3ccccc3)s2)cc1	0.59	0.7
CCOC(=O)N1CCN(C(=O)C2CCN(S(=O)(=O)c3c(C)cc(C)cc3C)CC2)CC1	0.05	1.68
COc1ccc(C(CNC(=O)Cc2cc(OC)c(OC)c(OC)c2)N2CCCC2)cc1 (stereo unspecified)	0.05	-0.31
Cn1c(=O)c(C(=O)CSc2ccccc2)c(N)n(Cc2ccccc2)c1=O	0.95	-0.98
CN(C)C=Nc1ccc2nc3c(cc2c1)[nH]c1ccccc13	1.7	-0.5
Cc1ccc(-n2ncc(C#N)c2/N=C/N(C)C)cc1	0.65	0.49
O=C(NN1C(=O)c2ccccc2C1=O)c1ccccc1[N+](=O)[O-]	3.22	-2.71
Cc1nc(CC(C)C)cc(C(=O)N2CCCC(CNS(=O)(=O)c3cccs3)C2)n1 (stereo unspecified)	0.68	-0.08
COc1ccc(N2CCN(C(c3cccs3)C(C)NC(=O)C(=O)N3CCCCC3)CC2)cc1 (stereo unspecified)	0.26	1.09
COc1cc(C2C(C(C)=O)=C(O)C(=O)N2CCN2CCOCC2)ccc1O (stereo unspecified)	0.01	-0.99
COc1ccccc1C(=O)NCc1ccncc1	0.73	-0.87
CC(=O)COc1ccccc1OC(=O)c1ccco1	0.38	0.55
COC(=O)Cc1c(C)c2ccc(OCC(=O)N(C)C)cc2oc1=O	0.03	2.66
CN(C)c1ccc(CNc2ncn[nH]2)cc1	0.06	-2.94
O=C(NCc1ccco1)c1ccc(CS(=O)Cc2cccc(Cl)c2)o1 (stereo unspecified)	0.49	0.01
CCc1ccc(-c2cc(C)no2)cc1S(=O)(=O)Nc1cccc(CN2CCCC2)c1	1.55	-0.09

# (further entries)
compound	KCNQ2 enhance	KCNQ2 enhance baseline
O=C(NCc1ccco1)C1CC(c2ccc(Cl)cc2)=NO1 (stereo unspecified)	2.52	-0.98
Cc1cc(C(=O)COC(=O)CCc2nc3ccccc3s2)c(C)n1C	0.41	-0.04
Fc1ccc(CSc2ccc(-c3cccs3)nn2)cc1	1.17	-0.49
CCCc1cc(=O)[nH]c(SC(CC)C(=O)Nc2ccccc2C#N)n1 (stereo unspecified)	1.15	-1.37
O=C(O)c1ccccc1-c1ccccc1C(=O)Nc1ccccc1	0.12	-0.46
O=C(NC(=S)Nc1cccc(F)c1)c1cccc([N+](=O)[O-])c1	2.5	-0.85
COc1ccc(S(=O)(=O)N2CCC(C(=O)NC3CC3)CC2)cc1OC	1.74	-0.28
Cc1ccc(C)c(N2N=C(C(=O)Nc3nccs3)CCC2=O)c1	0.38	0.64
COc1ccc(S(=O)(=O)N2CCOCC2)cc1NC(=O)c1cccc2c(=O)c(C)c(-c3ccccc3)oc12	0.96	0.78
CCCN1CCC2(CC1)C(C#N)=C(N)Oc1c2sc2nc(C)cc(C)c12	0.06	0.09
COc1ccc(C2C3=C(CC(c4ccco4)CC3=O)Nc3ccccc3N2C(C)=O)cc1 (stereo unspecified)	0.22	1.98
C=C(C)CSc1nc2c(c(=O)[nH]c(=O)n2C)n1CCC(C)C	1.98	2.31
COc1ccc(/C=N/OCC(=O)OCC(=O)N(C)c2ccccc2)cc1	0.19	-0.14
Cc1nn(C)cc1S(=O)(=O)NC1CCCC1	0.88	1.53
CC(=O)Cc1nsc(NC(=O)c2ccc(-c3ccc(Cl)c(C(F)(F)F)c3)o2)n1	0.95	-0.47
CCN(CC)c1ccc(NC(=O)c2nc3nc(C)cc(C(F)F)n3n2)cc1	1.02	-0.54
COc1ccc(C(=O)N/N=C(\C)CC(=O)Nc2ccc(N(C)C)cc2)c(OC)c1	0.54	-0.03
COc1ccc(C(=O)CC(c2ccccc2)C2C(=O)CCCC2=O)cc1 (stereo unspecified)	0.02	-3.18
CC1=CC(C)(C)n2c(O)c(N=NC(N)=S)c3cc(C)cc1c32	1.12	-1.7
CCc1noc(C)c1C(=O)Nc1nc2ccc(S(C)(=O)=O)cc2s1	1.31	0.61
O=C1NC(=O)c2cc(NC(=O)C3CCCO3)ccc21 (stereo unspecified)	0.96	-0.01
COc1c(C)cc(C(=O)C2CCCN(C(=O)c3snnc3C)C2)cc1C (stereo unspecified)	1.29	2.25
Clc1ccccc1-c1nc(-c2ccncc2)no1	0.91&0.75	0.01&-0.24
Cc1cc2cc(CCNC(=O)c3ccc(S(=O)(=O)N4CCOCC4)cc3)c(=O)[nH]c2cc1C	0.06	-1.65
O=C(Nc1ccccc1Br)C1CC(=O)N(c2ccc3c4c(cccc24)CC3)C1 (stereo unspecified)	0.03	-0.21
O=C(COC(=O)c1ccccc1)Nc1ccccc1N1CCOCC1	0.45	-0.36
O=C(CSc1nnc(NC(=O)c2cccc(F)c2)s1)NC1CC1	1.27	0.01
O=C(NN=C1CCCCC1)c1ccccc1OCc1ccc(F)cc1	1.84	-0.4
CCN(CC)C(=O)C1CCCN(c2ccc([N+](=O)[O-])cc2/C=N/NC(=O)c2ccc([N+](=O)[O-])cc2)C1 (stereo unspecified)	0.33	-0.24
CCOc1ccc2[nH]c(=O)c(CN(Cc3ccco3)C(=O)c3ccc(Br)cc3)cc2c1	0.03	1.24
Cc1nnc(SCC(=O)NC2CC2)s1	0.61	0.32
CCOC(=O)/C(C)=N/NC(=O)c1cccc([N+](=O)[O-])c1	3.11	1.07
O=C1CN(C(=O)CSc2nnc3ccccn23)c2ccccc2N1	0.7	-0.08
CCN(CC)S(=O)(=O)c1ccc(NC(=O)COC(=O)c2ccc(NC(=O)CC#N)cc2)cc1	0.85	-0.01
COCCNC(=S)N(CCc1c(C)[nH]c2ccc(Cl)cc12)Cc1cccs1	1.5	0.11
COc1ccc(NC(=O)C(=S)NC2CCCCC2)cc1	0.31	-1.19
O=C(C1CCN(S(=O)(=O)c2cccc3nsnc23)CC1)N1CCCCC1	1.09	-0.01
COc1cc(/C=N/N2CCN(Cc3ccc(Cl)cc3)CC2)cc(Br)c1O	0.14	-0.11
O=C(CCc1ccccc1)Nc1cc2c3c(c1)CC(=O)N3CCC2	0.57	-0.66
CCc1cccc(NC(=O)CCNS(=O)(=O)c2ccc3[nH]c(=O)oc3c2)c1	0.83	-0.01
Cc1[nH]c(=S)sc1Cc1ccc(F)cc1	4.58	2.19
Cc1cc(=O)oc2cc(NC(=O)c3ccccc3C(=O)O)ccc12	0.43	0.19
CCCCS/C(N)=N/N=C/c1cc(C)ccc1O	0.35	1.4
CC(C)CCn1c(SCC(=O)Nc2ccccc2C(F)(F)F)nc2nccnc2c1=O	1.43	0.04
O=C(NC1CCCCC1)C1CC(=O)N(CCc2ccccc2)C1 (stereo unspecified)	1.45	-0.3
COc1ccc(C(=O)CSc2nnc(Cc3ccccc3)o2)cc1	1.21	1.12
CCC(C)NC(=O)C1CCN(C(=O)N(C)C)CC1 (stereo unspecified)	1.88	-0.5
Cc1cc(OCC(=O)Nc2cc(C(C)(C)C)on2)ccc1[N+](=O)[O-]	0.85	-0.09
CCc1ccc(/C=N\n2cnnc2)cc1	0.33	-0.78
Cc1c(C(=O)NCc2ccccn2)oc2ccc(Br)cc12	0.07	-0.17
Fc1ccccc1NC(=S)NCCc1ccccc1	0.46	-3.18
Cc1sc2nc(C(C)Sc3n[nH]c(N)n3)[nH]c(=O)c2c1C (stereo unspecified)	0.45	0.08
CN(CC(=O)NCc1ccccn1)S(=O)(=O)c1ccc(Br)cc1	1.4	1.26
Cc1ccccc1NC(=O)c1ccccc1NS(=O)(=O)c1cccc2cccnc12	1.17	-0.51
CCn1c(SCC(=O)N2CCC(C(N)=O)(N3CCCCC3)CC2)nnc1-c1ccccc1	0.33	-1.24

# 6 entries picked at random from the list so far:
compound	KCNQ2 enhance	KCNQ2 enhance baseline
Cc1ccccc1NC(=O)c1ccccc1NS(=O)(=O)c1cccc2cccnc12	1.17	-0.51
COc1ccc(C(=O)CSc2nnc(Cc3ccccc3)o2)cc1	1.21	1.12
CCn1c(SCC(=O)N2CCC(C(N)=O)(N3CCCCC3)CC2)nnc1-c1ccccc1	0.33	-1.24
Fc1ccccc1NC(=S)NCCc1ccccc1	0.46	-3.18
O=C(NC1CCCCC1)C1CC(=O)N(CCc2ccccc2)C1 (stereo unspecified)	1.45	-0.3
Cc1[nH]c(=S)sc1Cc1ccc(F)cc1	4.58	2.19

# Source: PubChem BioAssay
